Screening data deposited in PubChem BioAssay by several laboratories.
BJeLR lethal – kills HRASV12-expressing BJeLR cells. BJeLR (HRASV12) viability, CellTiter-Glo ATP luminescence, 48 h; reference of the scale not given here. actives 0.17% (n = 300,000). AID 1554. inhibition, % (concentration not given with the values);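 active = replicate mean above 50%; inconclusive = above 50% but judged a plate artefact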;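 note: 50 nL library stock added to about 25 µL; numbers are from one replicate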
Bead autofluor – flagged as autofluorescent in microsphere protease counterscreen | actives 3.1% (n = 360,000) | compound autofluorescence counterscreen, microsphere flow cytometry; stronger effect = higher value | fluorescence intensity (concentration not given with the values);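 active = at least 3 SD above the mean of all compounds, about 16000 in these data; inconclusive = too few beads counted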;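 note: 100 nL of 1 mM stock went into each well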
PrP 5UTR inh – suppresses PrP 5' UTR mRNA reporter expression; cell-based PrP 5' UTR mRNA reporter, plate reader; actives 0.35% (n = 340,000); inhibition, % (no concentration beside the values); AID 488862;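 active = every replicate at 50% or more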;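 note: 0 = median of the neutral control wells; tested in H4 reporter cells; numbers are from one replicate; inactives centre near -14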
RN4220 kill – kills Staphylococcus aureus RN4220 | S. aureus RN4220 growth, OD600, 16 h | inhibition, % (no concentration beside the values) | actives 0.33% (n = 330,000) | AID 1259311;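 active = z-score of -3 or lower and OD600 up to 0.18 on both plates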;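 note: plate controls were untreated cells for no effect and reference antibiotic for full effect; stock transfer was 100 nL into about 80 µL; one replicate is shown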
Mtb hypoxia inh – Mtb hypoxia fluorescent reporter inhibition. M. tuberculosis hypoxia-regulated fluorescent reporter, fluorescence. fluorescence inhibition, % (test concentration not listed). actives 0.1% (n = 300,000). AID 1159583;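 active = 35 to 45% if threefold the growth effect, above 45% if 1.5-fold the growth effect; inactive = the rest, general growth blockers included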;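 note: wells of about 50 µL received 100 nL stock; 0% = vehicle wells and 100% = reference inhibitor wells; whole bacteria with a GFP reporter of the hypoxia response; strong numbers were not always called active; many hits fall short of the cut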
ugtP null kill – compounds lethal to S. aureus RN4220 ugtP deletion mutant; actives 0.54% (n = 330,000); OD600 growth, 16 h; some inactives read as strong as hits; growth inhibition, % (no concentration beside the values);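 active = z-score under -3 and OD600 up to 0.15 on both plates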;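 note: plate controls were untreated wells for no effect and antibiotic for full effect; wells of about 80 µL received 100 nL stock; the first replicate is given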
Mtb hypoxia inh growth – second read-out of Mtb hypoxia inh, no call of its own (marks repeat the call); growth inhibition, %; measured here: M. tuberculosis growth (absorbance);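 0% = vehicle and 100% = reference antibiotic; read after six days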
Active calls of the source: *; ? = inconclusive; . = not tested or not shown.

SMILES	BJeLR lethal	Bead autofluor	PrP 5UTR inh	RN4220 kill	Mtb hypoxia inh	Mtb hypoxia inh growth	ugtP null kill
CCn1nnnc1SCC(=O)N1CCN(c2ccccc2)CC1	-2	.	-15	-0.9	-9	-1	-3
COC(=O)C1C2c3ccccc3OC1(C)N=c1sc(=Cc3cnn(C)c3C)c(=O)n12 (stereo unspecified)	.	.	.	-14	19	8	-8
Cc1ccccc1NC(=O)C12CC3CCC1(C)C3(C)CO2 (stereo unspecified)	-2	2798	-16	11	-5	4	6
C(=C\c1nc2ccccc2[nH]1)/c1ccccc1	45	4091	6	3.6	4	1	6
Cc1c(C(=O)N2CCCCC2)oc2ccc(S(=O)(=O)N3CC(C)CC(C)C3)cc12 (stereo unspecified)	9	2655	-34	-2.2	.	.	-13
Cc1ccc2oc(=O)c3cc(C(=O)N4CCN(C(=O)c5ccco5)CC4)sc3c2c1	-5	.	.	2.8	.	.	8
O=C1[C@@H]2C(c3ccc(F)cc3)=NO[C@@H]2C(=O)N1Cc1ccccc1	-4	5544	.	0.7	2	-8	0
CC1CCN(C(=O)CSc2nc3ccccc3c(=O)n2Cc2ccc3c(c2)OCO3)CC1	-10	15459	-11	3.3	1	1	0
CCCCC(=O)Nc1nnc(S(=O)(=O)N(CC)c2ccc(OC)cc2)s1	-1	3782	-5	-2.8	-15	4	-9
O=C(Cn1c2c(c(-c3ccccc3Cl)cc1=O)CCC2)N1CCC2(CC1)OCCO2	3	2888	-3	3.7	2	9	-1
Cc1ccc(NC(=O)Cc2ccc(Cl)c(Cl)c2)cc1S(=O)(=O)N(C)C	-8	2472	-20	-9.8	9	10	-29
Fc1ccc(OCCCn2ccnc2)cc1	-8	3892	4	3.2	0	-3	3
COc1ccc(C(=O)N2CCNC(=O)C2CC(=O)Nc2ccc(C)c(C)c2)cc1 (stereo unspecified)	-4	5594	-3	2.8	9	-2	4
NNC(=O)c1cccc(S(=O)(=O)Nc2cccc(C(F)(F)F)c2)c1	-5	5045	3	3.6	4	4	3
O=C(NCCCN1CCc2ccccc2C1)C1CCN(S(=O)(=O)N2CCC3(CC2)OCCO3)CC1	-1	6469	-34	-3.0	-7	15	8
O=C(CCCn1c(=S)[nH]c2cc3c(cc2c1=O)OCO3)NCc1ccccc1Cl	6	6138	-22	5.2	9	-2	-5
N/C(=N\OC(=O)COc1ccc(Cl)cc1)c1ccc(Cl)cc1	-7	2595	-17	4.9	-5	2	1
c1ccc2c(c1)CCNC2c1ccncc1 (stereo unspecified)	-1	.	-17	1.3	1	-8	2
O=C(CNc1ccccc1)N/N=C/c1ccc2c(c1)OCO2	-5	2575	-16	.	.	.	.
CC1=C(C(=O)O)N2C(=O)C(NC(=O)c3nn(C)cc3[N+](=O)[O-])C2SC1 (stereo unspecified)	3	4363	-28	11	11	-1	12
Cc1nnc(SCC(=O)NCC2CCCO2)n1-c1ccccc1 (stereo unspecified)	-6	4026	0	4.2	-3	0	3
Brc1c(-c2ccc3c(c2)OCO3)nc2ncccn12	-8	4110	-28	.	.	.	.
CCOC(=O)N1CCC(c2[nH][nH]c(=O)c2C)CC1	-4	4615	-19	1.9	.	.	5
COc1ccc(-c2[nH]ncc2-c2cnn(-c3ccccc3)c2)c(O)c1	1	22408*	-19	-5.1	3	10	7
CC(C)(C)OC(=O)[C@H](Cc1ccccc1)NC(=O)c1nc[nH]c1C(=O)N1CCN(c2ccccc2)CC1	10	2819	-18	.	.	.	.
C=CCn1c(=O)[nH]c2cc(C(=O)N3CCN(c4cc(C)ccc4C)CC3)ccc2c1=O	4	16226*	-8	-1.9	-1	9	-6
Cc1cc(C)n(C(=O)CNC(=O)c2ccc3c(c2)OCCO3)n1	-15	3481	-9	.	.	.	.
COc1ccccc1OCC(=O)N(Cc1nc(-c2ccccc2)no1)C1CCCCC1	.	2104	-16	3.0	.	.	-7
CC(=O)Nc1cccc2c1Cc1ccccc1-2	-1	4009	-29	-2.1	8	2	0
COC(=O)CCCC1=CC2=CC(=O)C(C)(OC(=O)c3cccs3)C(=O)C2=CN1Cc1ccc2c(c1)OCO2 (stereo unspecified)	10	3335	-24	10	0	3	10
CCc1nc2ccccc2c(C(=O)Nc2ccc(F)cc2)c1C	11	3510	-29	1.9	17	9	8
CC(C)N(C)C1CCN(C(=O)Nc2ccc(Cl)cc2)CC1	11	23132*	-27	-1.3	-5	0	1
CC1=C(C(=O)Nc2ccccc2C)C2(CCCC2)C(C(N)=O)C(=O)N1 (stereo unspecified)	4	19911*	-2	1.9	8	7	5
COc1ccc(/C=N/NC(=O)CCC(=O)Nc2ccc(F)cc2)c(OC)c1	1	3119	-18	.	.	.	.
CCCCN(C(=O)c1ccc(C)o1)c1c(N)n(CCCC)c(=O)[nH]c1=O	8	6057	-1	1.7	0	5	4
COc1ccc2ncccc2c1Cc1c(OC)ccc2ncccc12	.	3589	-26	-3.4	10	2	4
O=C(COC(=O)c1ccccc1Cl)NC1CCCCCC1	.	3854	-32	3.0	12	4	3
Cc1ccc(OCC(=O)N2CC(C)OC(C)C2)c([N+](=O)[O-])n1 (stereo unspecified)	3	4146	-23	2.6	4	16	1
COc1ccc(CCN2CCCC(CN(C)Cc3cccc(OC)c3)C2)cc1 (stereo unspecified)	-2	4274	-2	0.4	2	-2	7
O=C(Nc1ccc(-c2cn3ccsc3n2)cc1)C1COc2ccccc2O1 (stereo unspecified)	7	2721	-39	10	0	-1	-3
COc1ccc(NC(=O)Cc2ccc(C)cc2)cc1S(=O)(=O)N1CCCCC1	.	8324	-14	-1.3	8	13	8
COc1cccc(OCc2nc3ccccc3[nH]2)c1	2	6067	-38	0.5	6	7	10
CCN1CCN(c2ccc(N)cc2C)CC1	-10	3708	-23	0.9	5	1	6
CC1=C(C#N)C(NC(=O)C(C)(C)C)(C(F)(F)F)C(=O)N1 (stereo unspecified)	1	21687*	-11	7.1	13	13	-5
CCC(=O)Nc1nnc(-c2ccc(Cl)s2)o1	-4	2667	-26	1.7	16	11	0
CCCCOc1ccc(CCC(=O)NN=Cc2ccco2)cc1	.	.	.	0.7	2	13	1
S=C(Nc1ccccc1)Nc1cccc(Cl)c1Cl	4	3521	-13	-4.9	16	10	4
Cc1[nH]c(=O)[nH]c(=O)c1S(=O)(=O)Nc1cccc([N+](=O)[O-])c1C	-7	3764	-10	2.5	3	5	5

Some of these compounds in order of formula weight, low to high.
SMILES	BJeLR lethal	Bead autofluor	PrP 5UTR inh	RN4220 kill	Mtb hypoxia inh	Mtb hypoxia inh growth	ugtP null kill
CCN1CCN(c2ccc(N)cc2C)CC1	-10	3708	-23	0.9	5	1	6
CCCCOc1ccc(CCC(=O)NN=Cc2ccco2)cc1	.	.	.	0.7	2	13	1
Cc1[nH]c(=O)[nH]c(=O)c1S(=O)(=O)Nc1cccc([N+](=O)[O-])c1C	-7	3764	-10	2.5	3	5	5

Remaining list, next part.
SMILES	BJeLR lethal	Bead autofluor	PrP 5UTR inh	RN4220 kill	Mtb hypoxia inh	Mtb hypoxia inh growth	ugtP null kill
CCOC(=O)C1CCN(CC(=O)Nc2c(C(=O)OC)n(C)c3cccc(C)c23)CC1	-1	2982	-12	3.6	.	.	-4
CC(CNC(=O)c1ccc(OC2CCN(Cc3ccccn3)CC2)cc1)c1ccccc1 (stereo unspecified)	6	7859	-23	.	.	.	.
Cc1ccc(C(=O)N2CCCC2)cc1S(=O)(=O)Nc1ccccc1	3	4950	-13	-0.8	.	.	1
CCc1ccc(-c2cc(C(=O)NN=Cc3c[nH]c4ccccc34)[nH]n2)cc1	.	.	.	-9.7	5	9	4
COCCCNC(=O)CCC(=O)NNc1nc2ccccc2c2nc(C)nn12	7	2799	-2	0.7	12	4	-2
COc1ccc(-n2nc3c(N4CCC(C(=O)NCCc5ccccc5C)CC4)nnc(C)c3c2C)cc1	-7	.	-32	7.2	4	-2	4
CCC(=O)NC(=S)NNC(=O)c1ccc(O)cc1	-11	4724	-5	8.2	-6	-1	10
O=C(c1cccc(S(=O)(=O)NCc2ccccc2)c1)N1CCCCC1	9	?	-14	4.8	12	1	5
COC(=O)c1ccc(C(=O)OC)c(NC(=O)/C=C/C(=O)O)c1	-7	6692	-18	3.8	18	0	-1
CCc1ccc(N2CC(C(=O)OCC(=O)Nc3ccc(C#N)cc3)CC2=O)cc1 (stereo unspecified)	.	9132	-14	13	5	0	11
S=c1[nH]nc(CSCc2ccccc2Cl)n1-c1ccccc1	2	?	-25	5.6	12	11	7
Cc1cc2ccccn2c1C(=O)c1ccc(Cl)c([N+](=O)[O-])c1	-3	3217	-19	0.3	-1	9	6
CCCc1cc(=O)[nH]c(SCC(=O)c2cc(C)n(C(C)COC)c2C)n1 (stereo unspecified)	2	?	-38	7.6	0	6	8
Oc1ccc(Br)cc1C=NN1CCN(Cc2cccc3ccccc23)CC1	.	.	.	-1.3	8	2	0
COc1ccc(Nc2ccc(N3C(=O)CCC3=O)cc2[N+](=O)[O-])cn1	-2	4357	-16	2.1	17	14	0
Cn1cccc1-c1cc(C(=O)N/N=C/c2ccc(F)cc2)[nH]n1	-2	4223	-10	.	.	.	.
COC(=O)c1c(C)oc(C)c1S(=O)(=O)N1CCOCC1	-6	3716	-14	2.6	4	-6	2
CCn1cc(CNC(=O)/C=C/c2cnn(C)c2)c(C)n1	-2	2121	-6	0.8	-11	3	4
CC1(C)Oc2ccc3ccc(=O)oc3c2/C(=C/NNC(N)=S)C1=O	2	3674	0	.	.	.	.
CC(=O)Nc1ccc(NC(=O)C2CC(=O)Nc3nc4ccccc4n32)cc1 (stereo unspecified)	2	5154	-29	3.7	1	10	18
O=C(O)CSCC(=O)N1CCN(Cc2ccc3c(c2)OCO3)CC1	0	3554	-16	2.6	13	9	6
CN1CCN(c2ncnc3c2cnn3-c2ccc(Cl)cc2)CC1	2	5279	3	-3.9	11	-2	-7
Cc1sccc1/C=N/NC(=O)c1ccco1	-6	5866	-24	.	.	.	.
COc1ccc(N(CC(=O)NCc2ccc3c(c2)OCO3)S(C)(=O)=O)cc1OC	-4	6143	1	0.3	13	4	3
O=C(CSc1nnnn1C1CCCC1)Nc1ccccc1N1CCOCC1	25	3955	3	0.9	3	2	1
Nc1nc(Cl)c2ncn(C3OC(CO)C(O)C3O)c2n1 (stereo unspecified)	.	3749	-26	2.2	25	4	0
COc1cc(C(NC=O)C(=O)Nc2c(C)cccc2C)ccc1O (stereo unspecified)	4	6025	-17	8.9	0	1	7
CSCC[C@H](NC(=O)OC(C)(C)C)C(=O)N/N=C/c1ccc2nccnc2c1	-9	3697	-19	.	.	.	.
